# GALR2 agonist = GALR2 (human) receptor agonism. O43603. GALR2-expressing cells, agonist activation read-out. activation, %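 (tested at 5 µM)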. actives 0.48% (n = 140,000);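 active means above mean plus 3 SD of all compounds, about 5% in these data, not always enough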;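 further: 0% = vehicle buffer wells and 100% = reference agonist at full effect; tested in CHO reporter cells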
# Target sequence (O43603 whole entry, looked up): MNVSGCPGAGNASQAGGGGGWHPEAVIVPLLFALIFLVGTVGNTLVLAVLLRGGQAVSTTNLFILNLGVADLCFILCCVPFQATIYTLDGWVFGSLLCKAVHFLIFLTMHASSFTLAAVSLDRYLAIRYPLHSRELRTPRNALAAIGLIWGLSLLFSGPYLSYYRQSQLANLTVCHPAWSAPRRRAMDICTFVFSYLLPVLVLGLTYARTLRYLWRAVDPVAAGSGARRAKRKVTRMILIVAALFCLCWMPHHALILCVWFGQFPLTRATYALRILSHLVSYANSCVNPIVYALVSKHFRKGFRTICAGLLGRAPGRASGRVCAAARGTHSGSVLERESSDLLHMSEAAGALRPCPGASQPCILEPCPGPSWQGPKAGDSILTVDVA
# HSV augment = HSV replication enhancement | AID 1956 | actives 0.005% (n = 220,000) | HSV replication augmentation in cells, fold increase | maximum fold increase;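 active means peak rise of 1.5-fold or more in the series; tested in PC3 cells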;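 further: first round at 10 µM; read as green reporter fluorescence; hits show the peak of a series up to 25 µM; 1 = signal of infected wells without compound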
# INS promoter inh = TRM-6 insulin promoter activity inhibition | TRM-6 cells (human fetal islet line), insulin promoter-eGFP reporter, imaging; reporter expression induced with tamoxifen | inhibition, % at 2 µM | actives 0.9% (n = 130,000);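 active means inhibition above the mean plus 3 SD, with well images judged a real hit on visual review, cut at about 60% in these data, passing the limit was not always enough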
# PKD1 inh = PKD1 (human) kinase inhibition; actives 0.056% (n = 200,000); Q15139; PKD1 kinase fluorescence polarization assay; inhibition, %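 (about 10 µM by stock and volumes)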; AID 797;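 active means inhibition of 50% or more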;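 further: controls were vehicle for no effect and a reference inhibitor for full effect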
# RGS16-Gao HTS = modulates binding between human RGS16 and Galphao; binding response (% of control), % at 10 µM; bead-based flow cytometry RGS16-Galphao binding, fluorescence; actives lie on both sides; actives 0.38% (n = 220,000);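 active means below 25% or above 175%, edge rows of some plates excepted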;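 further: Galphao activated by GDP with aluminum fluoride before binding; 100% = wells without compound and 0% = beads without RGS; some results beyond the cut were filed as inactive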
# Target sequence (O15492 whole entry, looked up): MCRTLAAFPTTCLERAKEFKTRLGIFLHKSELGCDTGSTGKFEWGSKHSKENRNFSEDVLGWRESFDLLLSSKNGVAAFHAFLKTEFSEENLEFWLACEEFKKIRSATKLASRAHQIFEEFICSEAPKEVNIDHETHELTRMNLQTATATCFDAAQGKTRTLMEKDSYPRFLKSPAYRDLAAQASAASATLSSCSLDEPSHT
# Target sequence (P09471 whole entry, looked up): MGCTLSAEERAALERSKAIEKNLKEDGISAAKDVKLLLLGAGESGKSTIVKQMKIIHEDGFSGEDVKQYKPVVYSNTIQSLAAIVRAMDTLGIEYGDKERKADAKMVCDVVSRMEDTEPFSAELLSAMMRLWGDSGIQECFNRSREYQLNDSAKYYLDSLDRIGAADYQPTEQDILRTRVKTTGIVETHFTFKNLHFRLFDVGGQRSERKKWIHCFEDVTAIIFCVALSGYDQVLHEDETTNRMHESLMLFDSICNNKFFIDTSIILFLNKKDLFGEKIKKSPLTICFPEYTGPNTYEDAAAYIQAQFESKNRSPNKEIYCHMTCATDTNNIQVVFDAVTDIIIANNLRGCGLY
# INS promoter inh cell count = recorded beside INS promoter inh, whose call it bears; normalized cell count, %; measured here: cell count, toxicity; reference of the scale not given here;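 cells exposed to compound for 48 h; stained nuclei by imaging scaled within each plate; lower means fewer cells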
# HSV augment primary fold = also measured in HSV augment; calls as there; fold increase; compound at 10 µM; measured here: primary screen fold increase 10 uM; tested in PC3 cells;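 GFP signal in the first replicate; 1 = infected wells without compound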
# The depositor's hits bear a star; i = inactive; . = no result given. An unsorted share of the library. Share with any hit: about 1.3%.
# Value order – RGS16-Gao HTS	GALR2 agonist	INS promoter inh cell count	PKD1 inh	HSV augment	INS promoter inh	HSV augment primary fold
COc1ccc(NC(=O)CCSc2ccc(C)cc2)cc1S(=O)(=O)Nc1ccccc1Cl
    101	0.4	.	-2	i	.	1.1
COc1cccc(/C=N/NC(=O)c2cnccn2)c1OC
    101	.	.	.	i	.	1
COc1ccc(OC)c(Nc2ncnc3sc(-c4ccccc4)cc23)c1
    107	-1.7	.	-6	i	.	0.95
CCc1cccc2c(SCC(=O)NCC3CCCO3)nc(-c3ccc(F)cc3)nc12 (centres undefined)
    101	-1.9	123	13	i	-16	0.86
CC1CCC(NC(=O)CN2C(=O)COc3ccc(S(=O)(=O)N4CCCC4)cc32)CC1 (centres undefined)
    104	0.3	.	2	i	.	0.92
COc1ccc(OC)c(CN2CCCC(CO)C2)c1 (centres undefined)
    107	-3.4	139	-4	i	0	0.88
CN(C(=O)c1cnccn1)c1nnc(-c2cnccn2)s1
    100	-0.8	90	2	i	57	0.82
CSC1=C(C#N)C(c2ccc(Cl)cc2)C2=C(CC(C)(C)CC2=O)N1 (centres undefined)
    99	.	.	.	i	.	0.71
NS(=O)(=O)c1ccc(O)c(NC(=O)c2ccc([N+](=O)[O-])cc2)c1
    102	.	74	-4	i	-18	1
Cc1ccc(SCc2c(C(=O)N/N=C/c3ccccc3)nnn2-c2nonc2N)cc1
    100	.	.	.	i	.	0.9
Cc1ccc[n+](CC(=O)Nc2cc(C(F)(F)F)ccc2Cl)c1
    100	-3.0	.	2	i	.	1.1
COc1ccc(N=C2NC(=O)/C(=C\c3ccco3)S2)cc1
    90	.	.	-7	i	.	1.1
C/C(=N\NS(C)(=O)=O)c1ccc(C)cc1
    99	-2.7	165	2	i	29	1.1
Cc1ccc(CN2CCN(CCCc3ccccc3)CC2CCO)cc1 (centres undefined)
    106	.	.	8	i	.	1.1
COc1ccc(Cc2noc(CN3CCN(C4CCc5ccccc5C4)CC3)n2)cc1OC (centres undefined)
    101	.	.	-2	i	.	1.3
CC(=O)c1c(OC(=O)c2ccc(C)cc2)c2ccccc2n1C
    108	-0.8	0.0*	2	i	100*	0.75
Cc1ccc(S(=O)(=O)N2CCCCC2)cc1NC(=O)Cn1ccc(C(F)(F)F)n1
    97	.	148	-5	i	-36	1.1
CC(=O)c1ccc(OCC(O)CNCc2ccc3c(c2)OCO3)cc1 (centres undefined)
    100	.	.	.	i	.	0.93
Cc1cc(C)nc(SCc2nc3ccccc3n2C)n1
    102	-1.2	88	1	i	24	0.82
Fc1ccc(Nc2ncnc3sc4c(c23)CCC4)cc1
    106	-1.6	145	-6	i	-12	0.81
Cc1ncoc1C(=O)N1CCCC(C(=O)c2ccc(-c3ccccc3)cc2)C1 (centres undefined)
    106	.	.	-3	i	.	0.99
COC(=O)c1ccc(COc2ccccc2/C=N/Nc2cccc(C(=O)O)c2)cc1
    99	.	.	8	i	.	1
Cc1cc(=O)[nH]c2c1c(C)nn2-c1ccccc1
    100	-1.3	80*	-5	i	61*	0.89
COc1cc(/C=C(\C#N)c2nc3ccc(C)cc3[nH]2)c([N+](=O)[O-])cc1OC
    92	-2.0	.	3	i	.	1
CC(C)N1C(=O)CCN(C=O)c2ccccc21
    111	.	91	-1	i	-18	0.98
CC(=O)CCS(=O)(=O)c1ccc(C)c(C)c1
    112	-0.8	103	-8	i	15	0.77
COCCNc1nc2nonc2nc1N(C)Cc1cccc2cnccc12
    103	.	127	-3	i	20	0.95
CSc1ccccc1C(=O)Nc1cc([N+](=O)[O-])ccc1C
    95	.	.	-5	i	.	0.9
COc1ccc(O)c(/C=N/N2CCOCC2)c1
    103	.	.	.	i	.	1.2
CCCCNC(=O)COC(=O)c1ccc(NS(=O)(=O)c2ccc3c(c2)OCCO3)cc1
    108	-1.0	109	-4	i	-10	0.82
C=CCn1c(=NC(=O)c2cc(-c3cccs3)nc3ccccc23)sc2cc(S(N)(=O)=O)ccc21
    101	0.0	150	-8	i	-32	0.67
Cn1c(=O)cc(-c2ccccc2)c2ccccc21
    102	-1.9	125	-11	i	30	0.92
O=C(/C=C/c1c(F)cccc1Cl)Nc1nc2ccccc2[nH]1
    96	2.4	111	5	i	3	0.8
Cc1cc(C)c(C)c(OCC(=O)N2CCCCCC2)c1
    79	0.1	59	-4	i	-40	1
C=CCNC(=S)NNc1ncnc2sc3c(c12)CC(C)(C)OC3
    102	-2.8	124	-1	i	10	0.9
CCOC(=O)C1=C(N)Oc2cc(C)n(C)c(=O)c2C1c1ccncc1 (centres undefined)
    101	-0.6	.	-1	i	.	0.93
COC(=O)c1nnc(-c2ccccc2)nc1OC
    110	-0.8	92	-1	i	-38	0.93
C=CCNC(=O)c1c(Cl)nc(C)c([N+](=O)[O-])c1C
    117	-0.2	51	4	i	-81	1
Cc1cccc(NCc2nc(SCC(N)=O)n[nH]2)c1
    99	-0.6	.	3	i	.	0.86
Cc1[nH]c2ccccc2c1C(=O)C(=O)NCCc1ccc(S(N)(=O)=O)cc1
    106	0.1	86	-8	i	-24	1.1
CCN(CC)S(=O)(=O)c1ccc(NC(=O)COC(=O)CNS(=O)(=O)/C=C/c2ccccc2)cc1
    110	-0.9	.	-10	i	.	0.97
COc1ccc(/C=C/C(=O)NCc2cccnc2)cc1
    109	-0.3	86	-6	i	-50	1.1
CCCn1c(=O)c(C(=O)Nc2ccccc2)c(O)c2ccccc21
    102	-0.8	88	-4	i	-77	0.93
Cc1ccc(CC(=O)NC2CCSC2=O)cc1 (centres undefined)
    110	.	112	-5	i	36	1
COc1cc(CNCCc2ccccc2)ccc1OCC(=O)NC(C)(C)C
    101	-0.5	83	-3	i	0	0.95

# 7 compounds from above, limited to HSV augment primary fold and INS promoter inh.
Molecule	HSV augment primary fold	INS promoter inh
C=CCNC(=S)NNc1ncnc2sc3c(c12)CC(C)(C)OC3	0.9	10
CCOC(=O)C1=C(N)Oc2cc(C)n(C)c(=O)c2C1c1ccncc1 (centres undefined)	0.93	.
COC(=O)c1nnc(-c2ccccc2)nc1OC	0.93	-38
C=CCNC(=O)c1c(Cl)nc(C)c([N+](=O)[O-])c1C	1	-81
Cc1cccc(NCc2nc(SCC(N)=O)n[nH]2)c1	0.86	.
Cc1[nH]c2ccccc2c1C(=O)C(=O)NCCc1ccc(S(N)(=O)=O)cc1	1.1	-24
CCN(CC)S(=O)(=O)c1ccc(NC(=O)COC(=O)CNS(=O)(=O)/C=C/c2ccccc2)cc1	0.97	.

# More compounds follow:
# Value order – RGS16-Gao HTS	GALR2 agonist	INS promoter inh cell count	PKD1 inh	HSV augment	INS promoter inh	HSV augment primary fold
O=C(O)CCCCCn1c(SCC(=O)N2CCCC2)nc2ccsc2c1=O
    100	-3.0	93	1	i	14	1.2
COc1ccc(NC(C)=O)c(C)c1
    101	.	.	8	i	.	0.96
COc1ccc(-c2cn3c(C)c(C(=O)Nc4cccc(C)n4)sc3n2)cc1
    105	-1.1	124	-17	i	8	1.1
Cn1c(=O)c2c(nc(CN3CCN(C(=O)c4ccco4)CC3)n2CCCc2ccccc2)n(C)c1=O
    101	-2.4	.	-14	.	.	.
CC(C)(C)NC(=O)NC(=O)CSc1ncc(C(F)(F)F)cc1Cl
    97	-3.2	68	-1	i	11	0.97
CSc1nnnn1-c1ccc(Cl)cc1
    104	.	80	-8	i	25	0.98
COC(=O)c1ccc(C)c(NS(=O)(=O)c2ccc(OC)cc2)c1
    97	0.9	2.7*	0	i	100*	0.54
CC1(CCc2ccccc2)NC(=O)N(Cc2nnc(-c3ccccc3Br)o2)C1=O (centres undefined)
    100	-0.1	92	15	i	-14	0.93
COc1ccc(C2=NOC(C(=O)Nc3c(C)n(C)n(-c4ccccc4)c3=O)C2)cc1OC (centres undefined)
    75	-2.2	.	-14	i	.	0.96
CC(=O)Nc1ccc(N/C=C/C(=O)c2ccco2)cc1
    102	0.3	127	-2	i	-31	1
NC(=O)CNC(=O)[C@@H]1CC2(CC(c3ccc(Cl)cc3)=NO2)CN1C(=O)c1ccccc1 (some centres undefined)
    109	-3.2	.	-2	i	.	0.9
CCCC(c1nnnn1CCC(C)C)N1CCC(C(N)=O)CC1 (centres undefined)
    108	-0.8	38	0	i	17	1.1
CCN(C(=O)CSc1nnc(Cc2cccc3ccccc23)n1N)C1CCS(=O)(=O)C1 (centres undefined)
    101	-0.9	92	-2	i	0	0.96
COc1ccc(C(CNC(=S)NCc2ccccc2)N2CCCC2)cc1 (centres undefined)
    104	.	.	0	i	.	0.85
COc1ccc(CNc2ccc(S(N)(=O)=O)cc2)cc1
    99	-1.3	.	-3	i	.	0.9

# Taken from above.
# Value of `COc1cccc(/C=N/NC(=O)c2cnccn2)c1OC` in RGS16-Gao HTS: 101
# Value of `Cc1cccc(NCc2nc(SCC(N)=O)n[nH]2)c1` in HSV augment primary fold: 0.86

# (listing goes on)
# Value order – RGS16-Gao HTS	GALR2 agonist	INS promoter inh cell count	PKD1 inh	HSV augment	INS promoter inh	HSV augment primary fold
CCc1nnc(NC(=O)C2CCN(S(=O)(=O)c3ccc(C)cc3)CC2)s1
    108	.	.	0	i	.	0.93
O=C(OC1CCOC1=O)c1ccc(N2CCCC2)c([N+](=O)[O-])c1 (centres undefined)
    101	.	96	1	i	13	1
CCC(=O)N1CCc2cc(S(=O)(=O)NCCCOC)ccc21
    96	-4.4	100	-14	i	0	1
CCCc1n[nH]c2c1/C(=N\OCC)CC(C)(C)C2
    97	.	.	.	i	.	1
CSCCC(NC(=O)c1cc([N+](=O)[O-])ccc1Cl)C(=O)O (centres undefined)
    107	-1.2	.	1	i	.	0.96
O=C(CSc1nc(C2CC2)nc2ccccc12)N1CCc2ccccc2C1
    102	-0.1	97	10	.	62	.
CC(CN(C)Cc1ccccc1)OC(=O)c1cccc(F)c1 (centres undefined)
    107	0.9	118	-4	i	20	1
COC(=O)N/N=C/c1ccc(-c2ccc(Cl)c(Cl)c2)o1
    101	-1.4	.	-13	i	.	1
CC(C)(C)N(NC(=O)Nc1ccc(Cl)cc1)C(=O)c1ccccc1
    103	-1.2	.	-5	i	.	0.98
Cc1ccc(S(=O)(=O)c2c(N)n(CCN3CCOCC3)c3nc4ccccc4nc23)cc1C
    99	-1.8	110	8	i	-6	0.95
Cc1[nH]c2ccccc2c1CCNC(=O)c1c(N)no[n+]1[O-]
    106	.	48	0	i	-17	0.92
O=C(CCc1ccccc1)N/N=C/c1cccc(O)c1
    107	.	69	-4	i	-37	0.92
CN(c1ccccc1C(=O)O)S(=O)(=O)c1ccc2c3c(cccc13)C(=O)N2
    94	-1.3	58	-6	i	69	0.96
CCCc1nn(C(=O)c2ccccc2)c2c1C(=O)CC(C)(C)C2
    104	-1.7	140	-4	i	-31	0.89
COc1cc(C(=O)NCCC(=O)NCCCN2CCCCC2)cc(OC)c1OC
    107	-2.0	53	-7	i	-227	0.93
COc1ccc(NC(=O)N2CCc3ccccc32)cc1
    97	-1.6	107	-5	i	37	0.9
COCc1nc2ccccc2n1CCOc1ccccc1OC
    96	-0.1	.	-4	i	.	0.93
CCOc1ccccc1NC1=CC(=O)CC(c2ccccc2)C1 (centres undefined)
    125	-1.1	90	3	i	30	0.75
O=C(NCCCN1CCC(Cc2ccccc2)CC1)C1CCN(S(=O)(=O)N2CCOCC2)CC1
    102	-3.7	172	-8	i	14	0.88
CN1CCN(CC#CC(C)(O)C2CC3C=CC2C3)CC1 (centres undefined)
    104	-0.7	150	2	i	41	1
CCOC(=O)c1cccc(NC(=O)CSc2nnc(CNc3ccc(C)cc3)n2CC)c1
    102	0.1	60	4	i	0	1.1
CCOC(=O)c1nn(-c2ccccc2C)c2nc(Nc3ccccc3)cc(=O)n12
    42	-1.4	75	3	i	-46	1
CCc1nc(C#N)c(N2CCOCC2)o1
    104	-0.4	.	5	i	.	1.1
CCOC(=O)c1c(C)[nH]c(C2=NNC(=NC3CC3)SC2)c1C
    92	.	.	0	i	.	1
CCOC(=O)Cc1nnc(-c2ccccc2)o1
    101	.	.	-3	i	.	0.97
Cc1ccc(S(=O)(=O)N2CCC(=O)N(C(COCc3ccc(Cl)c(Cl)c3)Cc3ccccc3)CC2)cc1 (centres undefined)
    109	-0.6	112	-2	i	-81	0.83
O=C(Nc1ccccc1[N+](=O)[O-])c1cccnc1Cl
    87	0.4	98	0	i	3	1
Cc1[nH]c2c(Cl)cccc2c1CCNC(=O)C1CCCCC1C(=O)OCC(F)(F)F (centres undefined)
    94	-1.2	110	-6	i	0	0.94

# Assay outcomes: PubChem BioAssay, several laboratories
